GIV-Gai inh: GIV-Galpha-i interaction inhibition; Galpha-i3/FITC-GIV peptide fluorescence polarization, 90 min; stronger effect = lower value; scaled: aluminum fluoride 0%, vehicle 100%; P08753; AID 1224905; percent of control (FP), % (test concentration not listed); 0.42% of 210,000 active;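 active = replicate mean at 85% of control or lower, very high polarization wells dropped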;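 also: wells of about 15 µL received 100 nL stock; the first replicate is given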
Target sequence (P08753 whole entry, looked up): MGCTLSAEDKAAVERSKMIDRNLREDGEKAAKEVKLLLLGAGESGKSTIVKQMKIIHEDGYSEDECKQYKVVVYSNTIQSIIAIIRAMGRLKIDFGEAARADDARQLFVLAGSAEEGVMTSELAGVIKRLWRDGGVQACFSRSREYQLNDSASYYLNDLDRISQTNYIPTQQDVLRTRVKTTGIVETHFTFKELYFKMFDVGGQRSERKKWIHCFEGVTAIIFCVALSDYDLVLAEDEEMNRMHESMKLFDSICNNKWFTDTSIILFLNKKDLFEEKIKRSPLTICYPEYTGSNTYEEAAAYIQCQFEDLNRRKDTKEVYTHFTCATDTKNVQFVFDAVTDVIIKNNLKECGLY
HCMV UL50-53 inh: inhibitors of HCMV UL50-UL53 nuclear egress complex interaction. HTRF UL50-UL53 interaction, normalized percent inhibition. inhibition, % (no concentration beside the values). 0.15% of 190,000 active. AID 1918969;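 active = both replicates at 50% or more, plus weaker picks with an unusually low signal ratio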;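 also: stock transfer was 100 nL into about 20 µL; 0% = negative control wells and 100% = wells with untagged competitor protein; inactives centre near -12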
Sa growth 42C: inhibitors of Staphylococcus aureus growth at 42 °C; S. aureus RN4220 growth, OD600, 20 h; stronger effect = lower value; relative growth, % (no concentration beside the values); 0.53% of 170,000 active; AID 720641;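 active = growth at 42 °C up to 50% and 20 or more points under that at 30 °C, or under 10% at both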;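 also: 300 nL library stock went into each well; scaled to the means of positive and negative controls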
Sa growth 42C second temp: further read-out of Sa growth 42C, marked with its call; relative growth, %; measured here: growth at 30 °C;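 optical density after 20 h as mean of two plates; 100% = untreated growth and lower means inhibition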
* hit, by the source's call; nt = no result given.

Order of results – Sa growth 42C, GIV-Gai inh, HCMV UL50-53 inh, Sa growth 42C second temp
1: Cc1noc(C)c1CSc1ccccc1C(=O)OC(C)C(=O)N1CCOCC1 (configuration not stated)
    85, nt, 3, 91
2: Cc1ccc(C(=O)N2CCCCC2)cc1
    93, 102, nt, 90
3: O=C1C2C3C=CC(CC3)C2C(=O)N1c1nccs1 (configuration not stated)
    nt, 110, -25, nt
4: Cn1c(CSc2cc(C(F)(F)F)nc3ccccc23)nnc1SCC(=O)c1ccccc1
    98, 107, -46, 88
5: O=C(NCCc1nc2ccccc2n1Cc1ccccc1)c1ccccc1
    103, 102, nt, 81
6: COC(=O)CN1C(=O)COc2cc(S(=O)(=O)N3CCCCC3)ccc21
    83, 100, nt, 81
7: Cc1ccc(NC(=O)N2CCN(S(=O)(=O)c3ccc4c(ccn4C)c3)CC2)cc1Cl
    nt, 100, -7, nt
8: Cc1oc(-c2cc(Cl)ccc2Cl)cc1C(=O)O
    81, nt, 5, 95
9: COC(=O)c1ccc(C(=O)OC)c(N2C(=O)CSCC2=O)c1
    88, 107, -3, 94
10: COc1cc(OC)cc(-c2cc3nc(C)c(CCC(=O)NC(C)c4cccs4)c(C)n3n2)c1 (configuration not stated)
    101, 101, -3, 73
11: CCN(c1ccccc1)S(=O)(=O)c1ccc(N2CCc3ccccc3C2)nc1
    87, nt, -11, 92
12: O=C(Cn1ccc2ccccc2c1=O)NCC(=O)N1CCCCC1
    98, 101, nt, 88
13: Cc1ccccc1-c1nc2scc(CCNC(=O)c3ccc(Br)cc3)n2n1
    nt, 95, -18, nt
14: O=C(NCCC(=O)N1CCN(c2ccccn2)CC1)Nc1ccccc1
    74, nt, -21, 89
15: N#CC1=C(SCc2ccccc2)SC(c2ccc(C(=O)O)cc2)NC1=O (configuration not stated)
    72, 74*, nt, 85
16: NC(=O)c1cc2ccccc2o/c1=N\NC(=O)c1ccc(F)cc1
    100, 110, -49, 77
17: NC(=NC(=O)c1ccccc1)N1N=CCC1c1ccccc1 (configuration not stated)
    104, 100, nt, 90
18: Cc1ccccc1C(=O)OCc1cc(=O)n2nc(C3CC3)sc2n1
    83, 102, nt, 89
19: COc1cc(-c2nnc(SCc3nc4scc(-c5ccccc5)c4c(=O)[nH]3)o2)cc(OC)c1OC
    96, nt, -38, 102
20: Cn1cnnc1SCCOc1ccc(Cl)cc1
    94, 101, -6, 57
21: COCC(C)n1c(-c2ccc3c(c2)NC(=O)CO3)csc1=Nc1ccc(OC(F)F)cc1 (configuration not stated)
    101, nt, -20, 92
22: CNC(=O)c1sc(NCC(C)C)nc1C
    106, nt, -1, 102
23: CCC1Sc2ccccc2N(CC(=O)N(C(C)C)C(C)C)C1=O (configuration not stated)
    109, 100, -6, 95
24: CCC(=O)N1CCc2cc(Br)cc(S(=O)(=O)N3CCCC(C(=O)NCc4ccc(OC)cc4)C3)c21 (configuration not stated)
    119, 104, -14, 92
25: Cc1[nH]c2ccccc2c1CCNC1=CC(=O)CC(C)(C)C1
    108, nt, -9, 71
26: CC(=O)Nc1ccc(N=Cc2ccccc2)cc1
    94, nt, -22, 91
27: CC(C)(C)NC(=O)c1cccc(C(=O)NC(C)(C)C)c1
    73, 105, -6, 79
28: O=C(NCCc1ccsc1)c1ccc2c(=O)n3c(nc2c1)CCCCC3
    119, 103, 6, 84
29: O=C1COc2cc(S(=O)(=O)N3CCCC3C(=O)NC3CCCCC3)c(Cl)cc2N1 (configuration not stated)
    nt, 100, -10, nt
30: O=C(CN1C(=O)c2ccccc2S1(=O)=O)c1ccc(O)c(O)c1
    79, 97, -10, 71
31: Cc1cc(C)cc(NC(=O)CSc2nc3c(c(=O)[nH]2)CN(Cc2ccccc2)CC3)c1
    nt, 101, -15, nt
32: COc1ccccc1-c1noc(-c2cccnc2)n1
    nt, 106, -12, nt
33: COc1ccc(C2=C(C)C(=O)N(Cc3ccc(C(=O)Nc4ccc(F)cc4C)cc3)S2(=O)=O)cc1
    98, 99, nt, 96
34: O=C(Nc1ccc(C(=O)OCc2cc(=O)n3nc(C4CC4)sc3n2)cc1)c1cccc(Cl)c1
    99, 104, nt, 90
35: O=C(Cc1ccc(S(=O)(=O)N2CCCCC2)s1)OCc1csc(Nc2ccccc2)n1
    108, nt, -9, 90
36: CNc1nc(-c2ccc3c(c2)CCN3S(=O)(=O)c2ccccc2)cs1
    86, 105, 5, 89
37: CC(C)(C)c1ccc(N2C(=O)CN(Cc3ccccc3Cl)[C@H]3CS(=O)(=O)C[C@H]32)cc1
    nt, 103, -30, nt
38: Cc1nc2ccccc2n1C(=O)c1ccccc1C(=O)O
    nt, 107, -23, nt
39: CCOc1ccc(-c2nc(SC(C(C)=O)C(=O)N(C)C)c3c(=O)n(C)c(=O)n(C)c3n2)cc1 (configuration not stated)
    96, 95, nt, 85
40: Cc1ccc2cccc(NC(=O)COc3ccccc3[N+](=O)[O-])c2n1
    116, 103, 3, 90

Three compounds drawn at random from the list so far, as already listed:
Order of results – Sa growth 42C, GIV-Gai inh, HCMV UL50-53 inh, Sa growth 42C second temp
12: O=C(Cn1ccc2ccccc2c1=O)NCC(=O)N1CCCCC1
    98, 101, nt, 88
26: CC(=O)Nc1ccc(N=Cc2ccccc2)cc1
    94, nt, -22, 91
16: NC(=O)c1cc2ccccc2o/c1=N\NC(=O)c1ccc(F)cc1
    100, 110, -49, 77

(further entries)
Order of results – Sa growth 42C, GIV-Gai inh, HCMV UL50-53 inh, Sa growth 42C second temp
41: O=C(O)CN(c1cccc(C(F)(F)F)c1)S(=O)(=O)c1ccccc1
    102, 98, -9, 106
42: Cc1cc(C(=O)CSc2nncs2)c(C)n1-c1ccc(F)cc1
    115, nt, -12, 94
43: CCc1ccc(NC(=O)CNS(=O)(=O)c2ccc3nc(C)sc3c2)cc1
    90, 100, nt, 72
44: Clc1ccc(C=Nc2ccc(-c3csnn3)cc2)cc1
    95, 106, 3, 104
45: CCN(Cc1nc2cc(OC)c(OC)cc2c(=O)[nH]1)Cc1cc(=O)oc2c(C)c(C)ccc12
    93, nt, -16, 94
46: CCOC(=O)C(c1ccc(Cl)cc1)N1CCNCC1 (configuration not stated)
    98, nt, -16, 94
47: COC(F)(C(=O)NCCc1cccn1C)C(F)(F)F (configuration not stated)
    97, 113, -6, 94
48: O=C(O)c1ccc(CNCc2ccccc2Cl)s1
    100, 99, -16, 90
49: CC(C)C(=O)N(c1ccc2oc(=O)sc2c1)S(=O)(=O)c1cccs1
    63, 103, -25, 32
50: O=Nc1[nH]c2ccc(Br)cc2c1O
    74, 108, -91, 55
51: CCc1ccc(NC(=O)N(Cc2cccc(OC)c2)C2CCN(CC)CC2)cc1
    138, 101, nt, 90
52: CCc1c(C(=O)O)c2ccccc2[nH]c1=O
    92, nt, -4, 90
53: O=C(CN(Cc1ccccc1)S(=O)(=O)c1ccc(Br)cc1)N1CCN(c2ccc(F)cc2)CC1
    nt, 100, -13, nt
54: Cc1csc(SCC(=O)N(C)Cc2ccc(F)cc2)n1
    109, nt, 5, 90
55: CCOC(=O)N1CCC(NC(=O)c2cnc3n(c2=O)CCS3)CC1
    84, 108, 9, 91
56: CC1=C(c2ccc(C)c(C)c2)S(=O)(=O)NC1=NCC(=O)NCc1ccc(C)o1
    66, 163, -13, 79
57: NCCSc1sc(=S)sc1SCCN
    86, 105, -83, 73
58: COc1ccccc1CNC(=O)C1(C)COc2c(oc3ccccc23)C(=O)N1CCC1=CCCCC1 (configuration not stated)
    nt, 103, -29, nt
59: CC(C)(CC(=O)O)CC(=O)Nc1ccc(Oc2ccc(C(C)(C)C)cc2)nc1
    126, 101, 23, 97
60: Cc1sc2ncn(CC(=O)Nc3cccc(C(F)(F)F)c3)c(=O)c2c1S(=O)(=O)N1CCN(C)CC1
    104, 102, 27, 95
61: CCOc1ccc(NC(=O)COC(=O)C(C)C)cc1
    107, nt, -12, 90
62: O=C(CCCN=C1NS(=O)(=O)c2ccccc21)Nc1ccc2c(c1)CCC2
    89, nt, -17, 92
63: Cc1nc(-c2ccccc2)sc1-c1nnc(C2CC2)o1
    101, 94, 11, 106
64: O=S(=O)(Cc1ccccc1)c1nnnn1-c1ccccc1
    -0.2*, 105, 5, -0.5*
65: O=C(O)c1nn(CC(=O)N2N=C3/C(=C/c4ccco4)CCCC3C2c2ccco2)c(=O)c2ccccc12 (configuration not stated)
    93, nt, -22, 93
66: CCOC(=O)N1CCc2c(sc3c2c(=O)n(-c2ccc(F)cc2)c(=O)n3CC(=O)c2ccccc2)C1
    110, 107, -10, 90
67: CCc1ccc2oc(-c3ccc(NC(=O)CC(C)C)cc3)nc2c1
    103, 115, -5, 95
68: Cc1ccc(C(=O)c2oc3ccccc3c2NC(=O)Cc2coc3ccc(C)cc23)cc1
    112, 108, -4, 92
69: O=C(COc1ccc(-c2nc(-c3ccccc3)no2)cc1)N1CCCCC1
    nt, 111, -14, nt
70: COc1cc(C2C(C(=O)OCC3CCCO3)=C(C)NC3=C2C(=O)CC(C)(C)C3)ccc1OCc1ccccc1 (configuration not stated)
    nt, 99, 1, nt
71: Cc1noc(C)c1COc1cccc(C#N)c1
    75, nt, -27, 95
72: O=C(O)c1ccccc1C(=O)n1ccnc1-c1ccccc1
    109, 103, 14, 96
73: CCOc1ccc(CNC(=O)c2ccc3c(Cl)c4c(nc3c2)CCCC4)cc1
    106, 99, -43, 90
74: CSC1=C(C#N)C(=O)NC(c2cccc3ccccc23)S1 (configuration not stated)
    73, 102, -20, 61
75: O=C(CNS(=O)(=O)c1ccc(Br)s1)NCc1ccccc1
    101, 102, nt, 89
76: CN(C)C(=O)c1ccccc1NC(=O)c1ccco1
    97, nt, 2, 90
77: CS(=O)(=O)NCC(c1cccs1)S(=O)(=O)c1ccccc1 (configuration not stated)
    84, 100, -32, 89
78: O=C(OCc1ccc2c(c1)OCO2)c1cccc(S(=O)(=O)N2CCCC2)c1
    105, 101, -2, 93
79: COc1ccc2c(c1)CCc1c-2n[nH]c1C(=O)N1CCN(C(=O)c2nsc3ccc(C)cc23)CC1
    nt, 105, -24, nt
80: CN(C)c1ncnc2c1c(-c1ccccc1)cn2-c1ccccc1
    nt, 101, -13, nt
81: COc1cccc(NC(=O)CSc2nc3c([nH]c4ccccc43)c(=O)n2-c2cc(C)cc(C)c2)c1
    117, 101, nt, 72
82: C=CCn1c(CN(c2ccc(F)cc2)S(C)(=O)=O)nnc1SCC(=O)N1CC(C)CC(C)C1 (configuration not stated)
    nt, 104, -27, nt
83: CCN1C(=O)C2(c3ccccc31)C(C(=O)Nc1cccc(Br)c1)CC1CSCN12 (configuration not stated)
    nt, 103, -8, nt
84: O=c1c(=O)n2c(nn1Cc1ccc(F)cc1)sc1ccccc12
    112, 113, -19, 95
85: c1ccc(N2CCN(c3c4c(nc5ncnn35)CCC4)CC2)nc1
    nt, 104, -6, nt
86: CCn1c(-c2nonc2N)nc2ccccc21
    118, 112, nt, 91
87: O=C(CSc1nnc(-c2c[nH]c3ccccc23)o1)NCC1CN(Cc2ccccc2)CCO1 (configuration not stated)
    112, nt, -2, 83
88: COc1ccc(-c2cc(C(=O)NCc3ccccc3)[nH]n2)cc1S(N)(=O)=O
    nt, 105, -9, nt
89: CCOC(=O)N1CCC(NC2C3CC4CC(C3)CC2C4)CC1 (configuration not stated)
    96, 106, -8, 106
90: CCOc1ccc(NC(=O)c2cc3c([nH]c2=O)CC(C)(C)CC3=O)cc1
    nt, 101, -29, nt
91: COc1ccc2cc(CNC3CCCCC3)c(=O)[nH]c2c1
    116, 105, -26, 93
92: COC(=O)c1ccccc1NC(=O)CSc1nc2c(c(=O)n(C)c(=O)n2C)n1C
    nt, 100, -24, nt
93: CC(=O)Nc1cc(C2CC2)nn1-c1ccccc1
    105, 106, -2, 95
94: CC1(C(=O)NC2CCCC2)Cn2c(nc3ccccc32)C(=O)N1CCCN1CCOCC1 (configuration not stated)
    nt, 100, -84, nt
95: CCn1c(=O)c2cc(C(=O)NC3CCCC3)sc2c2ccccc21
    88, 110, nt, 87
96: CCOC(=O)c1ccc(N2C(=O)c3n[nH]c(-c4cccs4)c3C2c2ccc(O)c(OC)c2)cc1 (configuration not stated)
    100, 103, 2, 68
97: COc1ccccc1CCNC(=O)Cn1c(=O)c(=O)n(Cc2ccc(Cl)cc2)c2ccccc21
    nt, 100, -39, nt
98: COc1ccccc1N1CCN(CC(=O)Nc2ccc3[nH]c(=O)[nH]c3c2)CC1
    63, nt, -11, 83
99: COc1ccc(N2CCN(c3cc(C(=O)O)c4cc(NC(=O)C5CCC5)ccc4n3)CC2)cc1
    nt, 107, -53, nt
100: O=C(NCc1ccc(Br)cc1)C1CCN(c2cc(-c3cccc(F)c3)ncn2)CC1
    nt, 104, -27, nt

Screening data from PubChem BioAssay.
